High-throughput results (PubChem)
S aureus helic: S. aureus DNA helicase inhibition. purified S. aureus helicase, fluorescence unwinding assay; about half of the hits fall short of the stated cut. inhibition, %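 (tested at about 80 µM)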. actives 0.05% (n = 120,000);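 active = both duplicates at 50% or more, or one of them with a favoured structure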;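 note: 0% = mean of negative control wells and 100% = mean of positive control wells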
MgrA DNA FP: alters Staphylococcus aureus MgrA binding to DNA. fluorescence polarization. inhibition, %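 (about 10 µg/mL by stock and volumes)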. actives 0.13% (n = 84,000). AID 602314;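 active = above 50% in either of two replicates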;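 note: 0% = protein plus DNA without compound and 100% = DNA alone without protein; higher means less MgrA bound to DNA so lower polarization; one replicate is shown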
* marks the source's active call; other numbers are inactive results; . = not tested or not shown. This is a subset; count on the stated rates, not on these rows.

SMILES | S aureus helic | MgrA DNA FP
CCCN1CCN(C(=O)c2ccccc2CSc2ncn[nH]2)CC1 | -5 | .
Cc1cc(CSc2nc(C)cc(C)n2)c2ncccc2c1 | -21 | -1.9
CC1=C(C(=O)OC2CCCCCC2)C(c2ccc(Cl)c(Cl)c2)NC(=O)N1C (configuration not stated) | . | 2.5
CSc1nnc(C)c(=O)n1COC(=O)c1ccccc1 | 3 | .
CCc1c(O)c2ccccc2oc1=O | . | 3.0
CCCN(Cc1nnc(-c2ccco2)o1)C(=O)c1ccc2c(c1)CC(c1ccccc1)OC2=O (configuration not stated) | -2 | .
CC1Sc2cc(S(=O)(=O)C(C)CC(=O)N3CCc4ccccc43)ccc2NC1=O (configuration not stated) | -3 | 1.3
COC(=O)c1ccc(S(=O)(=O)N2CCCN(Cc3ccc(F)cc3)CC2)n1C | -17 | .
O=C(CC1C(=O)NCCN1C(=O)Nc1ccccc1)Nc1ccc(F)cc1 (configuration not stated) | 3 | .
CCN(CC)c1ccc2cc(C(=O)Nc3ccccc3)c(=N)oc2c1 | -11 | 14
OCCn1c(Cc2ccccc2)nc2ccccc21 | -23 | -0.1
ON=C1CCN(c2ncc(C(F)(F)F)cc2Cl)CC1 | . | 1.4
CC1=CCC2C(=O)N(c3ccc4c(c3)OCO4)C(=O)C2C1 (configuration not stated) | . | -0.9
COc1ccc(OC)c(NC(=O)CNc2cc(OC)c(Cl)cc2OC)c1 | 5 | .
O=C(N/N=C/c1ccco1)c1ccc(CSc2nc3ccccc3s2)cc1 | -15 | .
COc1ccc(-n2c3c(cc(C(N)=O)c2=O)C(=O)CC(C)(C)C3)cc1 | 2 | 2.2
COC(=O)c1ccc2c(c1)CCO2 | . | 1.0
Cc1ccc2c(c1)NNc1nncn1-2 | 5 | .
COC(=O)NC(=C(Cl)Cl)S(=O)(=O)c1ccccc1 | 2 | .
COc1ccc(-n2c(N(C(C)=O)C(C)=O)c(C#N)c3nc4ccccc4nc32)cc1 | 16 | .
N#C/C(=N\Nc1ccc(Br)cc1)C(=O)C1CC1 | . | -0.9
c1ccc(C2Nc3ccccc3C3OCCC23)cc1 (configuration not stated) | 13 | .
CC(N)CCCc1ccccc1 (configuration not stated) | -1 | 1.6
Cc1[nH]c(=O)[nH]c(=O)c1Oc1ccccc1 | -3 | 2.3
N#Cc1ccc2c(c1)N(CCCN1CCC(O)CC1)c1ccccc1S2 | . | 0.9

Molecules shown so far that have four or more nitrogen atoms:
SMILES | S aureus helic | MgrA DNA FP
CCCN1CCN(C(=O)c2ccccc2CSc2ncn[nH]2)CC1 | -5 | .
O=C(CC1C(=O)NCCN1C(=O)Nc1ccccc1)Nc1ccc(F)cc1 (configuration not stated) | 3 | .
Cc1ccc2c(c1)NNc1nncn1-2 | 5 | .
COc1ccc(-n2c(N(C(C)=O)C(C)=O)c(C#N)c3nc4ccccc4nc32)cc1 | 16 | .

Later entries:
SMILES | S aureus helic | MgrA DNA FP
O=C(CC1CCCCC1)NCc1ccco1 | -2 | 1.2
O=C(O)CCC(=O)N1CCNC(=O)C1 | -1 | -7.5
O=C(Cc1coc2cc3c(cc12)CCC3)OCCN1CCCC1=O | -5 | .
O=C(Nc1ccccc1)Nc1ccc(Br)cc1 | 2 | -0.4
CCCCc1ccc(S(=O)(=O)N2CCC(c3ccccc3OC)CC2)cc1 | . | -1.9
O=C(CSCc1ccccc1Cl)N/N=C/c1ccco1 | -4 | -0.3
CC(Sc1cccc[n+]1[O-])C(=O)N1CCN(C(=O)c2ccco2)CC1 (configuration not stated) | -2 | .
COc1cc2c(cc1OC)CN(C(=O)c1sc(-c3cnccn3)nc1C)CC2 | . | 3.2
Nc1c(C(=O)Nc2ccc(S(N)(=O)=O)cc2)sc2nc3c(cc12)CCCCCC3 | 11 | .
CC(=O)Nc1ccccc1-c1nc2ccc(C(=O)NC3CCCCC3C)cc2[nH]c1=O (configuration not stated) | 20 | .
CCc1ccc(/C=N/n2c(C)nnc2-n2nc(C)cc2C)cc1 | -16 | -0.8
N#Cc1c(C(F)(F)F)nc2sc3ccccc3n2c1=N | 2 | -0.8
O=C(Nc1ccc(Cl)cc1)OCc1nccn1Cc1ccc(Cl)cc1 | . | -0.9
O=C(c1ccco1)N(C(=O)c1ccco1)c1nc2ccccc2nc1N1CCOCC1 | 9 | .
O=C(Nc1ccc(S(=O)(=O)N2CCCC2)cc1)C1CC1 | 4 | .
CC1CCCCN1C(=O)NC12CC3CC(CC(C3)C1)C2 (configuration not stated) | 5 | -4.6
Cn1ncc2c(NNC(=S)Nc3ccc(F)cc3F)ncnc21 | -14 | .
CSCCC(CC(=O)O)NC(=O)c1cccs1 (configuration not stated) | . | 0.0
O=C(CSc1oc(-c2ccc(Cl)cc2)nc1S(=O)(=O)c1ccccc1)N1CCCC1 | -13 | .
Cc1cccc(NC(=O)C(Cc2ccccc2)NS(=O)(=O)c2cccc3cccnc23)c1 (configuration not stated) | 8 | 1.2
CC1CCN(C(=O)COC(=O)c2sc3ccccc3c2Cl)CC1 | -20 | 1.2
Cc1ccc(S(=O)(=O)NC(=O)N2CCCc3cc(SC#N)ccc32)cc1 | 28 | .
CCc1nnc(NC(=O)c2ccccc2)s1 | -16 | .
COCCOC(=O)C1=C(C)NC(C)=C(C(=O)OCCOC)C1c1cn(-c2ccccc2)nc1-c1ccccc1 | . | 2.6
Clc1ccccc1N1CCN(C2=Cc3ccccc3CC2)CC1 | . | -0.7

Complete entries, looked up by structure.
O=C(Nc1ccc(S(=O)(=O)N2CCCC2)cc1)C1CC1 reads S aureus helic = 4; MgrA DNA FP = .
COc1cc2c(cc1OC)CN(C(=O)c1sc(-c3cnccn3)nc1C)CC2 reads S aureus helic = .; MgrA DNA FP = 3.2

The listing continues.
SMILES | S aureus helic | MgrA DNA FP
O=CNCc1ccc(F)cc1 | 14 | .
CCc1nnc(NC(=O)c2ccc3c(c2)[nH]c(=O)c(=O)n3CC)s1 | 1 | .
O=C(O)C1C2C=CC(O2)C1C(=O)NCCc1cccc(Cl)c1 (configuration not stated) | 8 | -1.1
O=C(CSc1nnc(Cn2c(=O)sc3ccccc32)n1-c1ccccc1)Nc1ccccc1F | 10 | .
Cn1cccc1C=C1C(=O)c2ccccc2C1=O | -32 | .
CCCNCc1cccn1-c1nnc(N2CCCC2)s1 | 21 | .
CN(CC(=O)N1CCC(Cc2ccccc2)CC1)S(=O)(=O)c1cccs1 | -12 | .
Nc1ccccc1C(=O)N1CCCC1 | 14 | .
CS(=O)(=O)N(Cc1ccccc1)c1ccccn1 | 3 | .
Nn1c(Cc2ccccc2F)nnc1SCc1cc(=O)oc2cc(O)c(O)cc12 | 55* | .
NS(=O)(=O)c1ccc(N=C2NC(=O)C(CC(=O)Nc3ccccc3)S2)cc1 (configuration not stated) | 13 | 0.2
O=C(O)COCC(=O)Nc1ccc(OC(F)F)cc1 | -9 | .
CC(=O)OC1CC(C(=O)O)N(S(=O)(=O)c2ccc(F)cc2)C1 (configuration not stated) | -13 | .
CN(CCOc1ccccc1)CC(=O)Nc1ccc(Br)cc1F | -4 | .
COc1ccc(F)cc1S(=O)(=O)Nc1ccc2c(c1)oc1ccc(S(=O)(=O)N3CCCC3)cc12 | 10 | -0.9
O=[N+]([O-])c1ccc(N2N=C(c3ccc(O)cc3)CC2c2ccc(F)cc2)cc1 (configuration not stated) | . | 2.5
C=CCNC(=O)COc1nc(-c2cccs2)cc(C(F)(F)F)n1 | -2 | 2.1
O=C(CC1CCCCC1)Nc1ccc(F)cc1 | 15 | 2.2
O=C(CN1C(=O)c2ccccc2S1(=O)=O)N1CCc2ccccc21 | 6 | -2.2
COc1cc2c3nc4n(c(=O)c3n(CC(=O)NCc3ccco3)c2cc1OC)CCS4 | 6 | -2.4
CC(C)NC(=O)CSCc1c(Cl)cccc1Cl | -8 | .
O=C(Nc1ccc(NC(=O)C2CC23CCC3)cc1)C1CC12CCC2 (configuration not stated) | 0 | 0.6
CCCC1C(=O)CC(C#N)(C#N)C(C#N)(C#N)C1c1ccccc1 (configuration not stated) | -35 | .
Cc1nn(-c2ccccc2)c(N)c1Sc1c(F)c(F)c(F)c(F)c1F | -13 | 1.1
CC(C)C(Nc1ncnc2ccc(Br)cc12)C(=O)O (configuration not stated) | -18 | .

Looked up by structure from the entries so far, four records:
SMILES | S aureus helic | MgrA DNA FP
NS(=O)(=O)c1ccc(N=C2NC(=O)C(CC(=O)Nc3ccccc3)S2)cc1 (configuration not stated) | 13 | 0.2
Nn1c(Cc2ccccc2F)nnc1SCc1cc(=O)oc2cc(O)c(O)cc12 | 55* | .
CS(=O)(=O)N(Cc1ccccc1)c1ccccn1 | 3 | .
O=C(O)C1C2C=CC(O2)C1C(=O)NCCc1cccc(Cl)c1 (configuration not stated) | 8 | -1.1

More entries.
SMILES | S aureus helic | MgrA DNA FP
Cc1nc(SCCNCCO)c2c3c(sc2n1)CCC3 | 11 | .
Cc1ccc(CNC(=O)c2cnc3ccccn3c2=O)cc1 | -13 | .
CC(C)c1nc(N2CCN(C(=S)NC3CCCCC3)CC2)c(C#N)c2c1CCCC2 | 5 | 2.0
Cc1nonc1NC1(Nc2nonc2C)C(=O)c2ccccc2C1=O | 8 | 1.0
Cc1nc2c3ccccc3n(Cc3ccccc3)c2s1 | 14 | 1.3
CCn1c(C)nc2cc(-c3nnc(Nc4ccccc4)o3)ccc21 | 9 | .
CC(C)(C)OC(=O)NCC1CCN(Cc2ccccc2)CC1 | . | -2.9
COC(=O)CN1C(=O)C(OC(C)=O)S(=O)c2ccccc21 (configuration not stated) | 13 | .
CCCN(CCC)C(=O)c1c(NC(=O)c2ccco2)sc2c1CCC(C)C2 (configuration not stated) | 7 | 2.4
Cc1c(CC(=O)N(C)C)sc2ccccc12 | . | 0.7
O=C(O)c1ccc2c(c1)CCC2 | 5 | -1.4
CC1(C)CC2CC(C)(CN2C(=O)c2ccccc2)C1 (configuration not stated) | 10 | -2.4
O=C1c2ccccc2C(=O)c2c1oc1c3c(ccc21)OCN(CCCn1ccnc1)C3 | 24 | .
CCn1c(=NC(=O)c2ccco2)sc2cc(Cl)ccc21 | 8 | .
CCOC(=O)C1CCN(c2cc(Nc3ccccc3C(=O)O)c3c4c(onc24)-c2ccccc2C3=O)CC1 | -99 | .
O=C1CS(=O)(=O)N(Cc2c(F)cccc2Cl)c2ccccc21 | . | 0.3
COc1cccc(Nc2nnc(SCC(C)C)s2)c1 | -4 | .
O=C(O)/C=C/c1c[nH]c(=O)[nH]c1=O | 7 | 0.4
CCCS(=O)(=O)Cc1nnc(-c2cccs2)o1 | . | -0.2
C=CCn1c(=S)[nH]c2sc3c(c2c1=O)CCCC3 | 13 | 1.4
O=C1NC(=O)N(c2ccc(Cl)cc2)C(=O)/C1=C/c1ccc(O)c(Br)c1 | . | 16
Cc1ccc2c(c1)c1nc3ccccc3nc1n2CC(C)C | -17 | .
Cn1c(C(=O)O)c(CNCc2ccccc2)c2ccccc21 | 20 | .
O=S1(=O)N=C(N2CCN(c3ccccc3)CC2)c2ccccc21 | 23 | .
O=C1CC(c2ccccc2)Oc2ccc(Cl)cc21 (configuration not stated) | . | -1.0
The list continues:
SMILES | S aureus helic | MgrA DNA FP
CC1=NN(c2ccccc2)C(=O)C12CC(C)=C(C)CS2 (configuration not stated) | 19 | .
Oc1ccc(Br)cc1C=Nc1cccc2nsnc12 | 8 | 7.8
COc1ccc(OC(C)C(=O)Nc2ccc3c(c2)OCO3)cc1 (configuration not stated) | 11 | .
O=C(CNc1ccc(S(=O)(=O)N2CCCC2)cc1)N1CCc2ccccc21 | -16 | .
O=C(Nc1cccc(C(F)(F)F)c1)NC1CC(=O)N(Cc2ccccc2)C1 (configuration not stated) | 4 | 0.4
Cc1c2cnn(-c3ccccc3)c(=O)c2c(C)n1CCCC(=O)N1CCc2ccccc2C1 | 35 | .
Clc1cc(Cl)c2nc(N3CCOCC3)sc2c1 | . | 0.5
FC(F)(F)c1cc(-c2cccc3ccccc23)n[nH]1 | . | 4.0
CC(Sc1nnc(CNC(=O)c2ccccc2F)n1C(C)C)C(=O)Nc1nccs1 (configuration not stated) | 0 | -2.2
COc1cc(OC)cc(-c2nc3ccccc3c(=O)n2OC(=O)C2CCC(C(C)(C)C)CC2)c1 (configuration not stated) | . | -1.9
CC(Sc1nc2cc(Cl)ccc2n1Cc1ccccc1)C(=O)NC(N)=O (configuration not stated) | -10 | .
NC(=O)C1CCCN(C(=S)NC2CCCCC2)C1 (configuration not stated) | -15 | .
Cc1nn(-c2ccccc2)c(C)c1N=Cc1c(O)ccc2ccccc12 | 1 | -4.5
Nc1c([Se]c2ccccc2)cc([Se]c2ccccc2)c2c1C(=O)c1ccccc1C2=O | . | -1.0
CN(C)C(CNC(=S)Nc1ccccc1Cl)c1ccco1 (configuration not stated) | -1 | .
Cn1ccsc1=NC(=O)Cc1coc2ccc3ccccc3c12 | 8 | .
CCc1cc(N2CCN(C(C)=O)CC2)n2c(nc3ccccc32)c1C#N | -9 | .
C=CCn1c(SCC(=O)c2ccc(CNC(C)=O)s2)nnc1C1CCCCC1 | 1 | .
CCCOC(=O)c1ccc(-c2n[nH]c(=O)c3ccccc23)cc1 | . | -0.7
COc1cccc(C2NC(=O)NC(C)=C2C(=O)OCc2ccc3c(c2)OCO3)c1OC (configuration not stated) | . | 0.8
COC(=O)c1ccccc1NC(=O)c1noc2c1CCc1ccccc1-2 | -23 | .
CC1=Nc2c(ccc3cccnc23)C1(C)C | -18 | 44
O=C(NCc1cn2ccccc2n1)c1ccco1 | 9 | 2.5
CCc1ccc(-c2nc(CSCC(=O)N3CCc4ccccc43)c(C)o2)cc1 | 15 | 0.6
O=C(CCSc1nnnn1-c1ccccc1)Nc1ccc(Cl)cc1 | -5 | -0.2
CCOC(=O)C(C)Sc1nc(-c2ccccc2)ccc1C#N (configuration not stated) | 6 | -1.9
CNC(=O)CN1C(=O)c2cccnc2Oc2ccc(Cl)cc21 | -3 | 1.1
CN(C)c1ccc(C(=O)Nc2ccc(CN3CCS(=O)(=O)CC3)cc2)cc1 | -6 | .
O=C(/C=C/c1ccccc1)Nc1cccnc1Oc1ccc(F)cc1F | . | 2.0
